CSC inhib = blocks cancer stem cells. 1.1% of 300,000 active. inhibition, % at 7.5 µM. cancer stem cell-like cells viability, luminescence;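 active = mean at 75% or more and at least half the replicates too; inconclusive = mean and replicates disagree; tested in HMLE shEcad cells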;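 also: 0% = median of negative and 100% = median of positive control wells; the first replicate is given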
Rce1 inh = yeast Ras-converting enzyme inhibition; calls only; Q03530; AID 2563; 0.27% of 290,000 active; yeast membranes, quenched prenylated peptide cleavage fluorescence;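 active = fall in fluorescence gain of 50% or more versus controls, with final raw signal at or below 3038400; inconclusive = same 50% fall but final raw signal above 3038400; inactive = fall in fluorescence gain under 50%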;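 also: plate controls were neutral control wells for no effect and wells lacking membranes for full effect; tested at 10 µM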
eIF4H FP inh = inhibitors of RNA binding by human eIF4H | eIF4H fluorescence polarization binding assay | inhibition, % at 35 µM | 0.94% of 290,000 active;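 active = 50% or more with normal probe brightness, or confirmed in later tests; inconclusive = above 50% with abnormal brightness, or retests that disagree; inactive = below 50% or failed in later tests; about a fifth of its hits are not listed in these tables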;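 also: calls also rest on retests at 20 µM and on dose response follow-up; 0% = protein and probe with vehicle and 100% = probe without protein; strong numbers were not always called active; many hits fall short of the cut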
HIV Env fusion = blocks HIV Env-driven cell-cell fusion | HeLa-JRFL Env/CEM21 cell fusion, luciferase | inhibition, % at 12.3 µM | 1.1% of 360,000 active;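 active = mean replicate inhibition score of at least 50 and every replicate individually at or above 50; inconclusive = only one of the two criteria met; inactive = mean below 50 and not all replicates reaching 50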;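 also: 0% = plate neutral controls and 100% = maraviroc near 300 nM; one replicate is shown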
Yeast UUG start = modulators of start codon recognition fidelity in yeast. S. cerevisiae UUG-firefly luciferase reporter, luminescence/redox ratio. activity score, % at 18.7 µM. 0.13% of 350,000 active;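 active = replicate mean at a twofold rise or more, about +100% in these data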;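 also: firefly luciferase made from a UUG start codon reports start codon fidelity; reporter light over untreated wells divided by growth signal over untreated wells; some hits fall short of that in this replicate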
MT1-MMP act inh = MT1-MMP (human) activation inhibition; GFP/RFP ratio change, % at 20 µM; 0.061% of 360,000 active; HT1080 RFP-PRO-GFP cells, GFP/RFP ratio fluorescence, overnight; percent of plate control window, DMSO zero; P50281;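 active = GFP/RFP ratio change of at least 30% with cell ATP level not reduced by more than half and red fluorescence within 50% of control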; also: strong numbers were not always called active
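Compound: 20 µM single dose, 1% DMSO / System: HT1080 RFP-PRO-GFP cells / Controls: DMSO and RFP-L50D-GFP cell wells / Read-out basis: GFP/RFP fluorescence ratio / Schedule: overnight compound exposure at 37 °C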
PABP polyA inh = blocks human PABP binding to poly(A) RNA; P11940; fluorescence polarization; inhibition, % at 35 µM; 1% of 290,000 active;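 active = 50% or more with normal probe brightness, or confirmed in later tests; inconclusive = above 50% with abnormal brightness, or retests that disagree; inactive = below 50% or failed in later tests; about a fifth of its hits are not listed in these tables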;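 also: calls also rest on retests at 20 µM and on dose response follow-up; controls were probe without protein and protein plus probe with vehicle; some compounds called inactive have numbers as strong as hits; many hits fall short of the cut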
Target sequence (P11940 whole entry, looked up): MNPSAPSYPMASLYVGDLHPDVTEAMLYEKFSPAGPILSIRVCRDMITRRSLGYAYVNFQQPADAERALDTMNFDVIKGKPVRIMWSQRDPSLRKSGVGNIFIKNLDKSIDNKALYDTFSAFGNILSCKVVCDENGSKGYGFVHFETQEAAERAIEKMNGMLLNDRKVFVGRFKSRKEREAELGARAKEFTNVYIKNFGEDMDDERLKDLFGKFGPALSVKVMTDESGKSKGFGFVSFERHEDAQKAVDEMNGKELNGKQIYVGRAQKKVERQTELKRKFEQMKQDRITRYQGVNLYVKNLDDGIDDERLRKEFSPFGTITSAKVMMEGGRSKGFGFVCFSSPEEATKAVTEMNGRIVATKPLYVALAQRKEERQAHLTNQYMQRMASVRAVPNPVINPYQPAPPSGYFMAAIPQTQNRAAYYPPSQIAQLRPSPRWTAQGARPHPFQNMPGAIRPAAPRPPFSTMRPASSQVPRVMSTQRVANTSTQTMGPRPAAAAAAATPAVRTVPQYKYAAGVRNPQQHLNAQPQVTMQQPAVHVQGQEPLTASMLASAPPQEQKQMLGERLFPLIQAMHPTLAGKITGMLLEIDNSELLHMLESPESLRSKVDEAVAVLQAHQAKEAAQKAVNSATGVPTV
MT1-MMP act inh RFP = recorded beside MT1-MMP act inh, whose call it bears; RFP signal change, %; measured here: RFP expression control read;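 0 = vehicle wells; hits needed this value within 50% of zero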
An asterisk follows results filed as active; i = inactive; ? = inconclusive; · = no result given.

SMILES | CSC inhib | Rce1 inh | eIF4H FP inh | HIV Env fusion | Yeast UUG start | MT1-MMP act inh | MT1-MMP act inh RFP | PABP polyA inh
Cc1cc2oc(=O)cc(COC(=O)c3n[nH]c4ccccc34)c2cc1C | · | i | -3 | · | -2 | -8 | 2 | 6
CCOC(=O)C1=C(COC(=O)CCOc2ccc(C)cc2)NC(=O)NC1C (centres undefined) | 11 | i | · | -56 | -14 | 3 | 4 | ·
CC(C)Nc1nnc(SCc2cc(=O)n3ccsc3n2)s1 | · | i | 36 | 8 | · | -7 | -2 | 10
Cc1ccc(NC(=O)[C@H](Cc2ccccc2)NC(=O)[C@@H]2Cc3ccccc3CN2)c(C)c1 | -3 | i | -1 | -1 | -20 | 1 | 2 | 15
COc1cc(/C=C/C(=O)Nc2cc(C(F)(F)F)ccc2Cl)cc(OC)c1OC | · | i | 5 | · | 6 | -11 | -5 | 0
O=C(CCc1c[nH]c2ccccc12)OCC(=O)N1CCN(S(=O)(=O)c2ccccc2)CC1 | -6 | i | · | · | -2 | -3 | 0 | ·
COc1ccc(N(C(C)C(=O)N/N=C/c2cccnc2)S(C)(=O)=O)cc1 (centres undefined) | -2 | i | 0 | 15 | -15 | 2 | 5 | 5
CC(CCN1CCN(c2ccccn2)CC1)c1ccccc1 (centres undefined) | 4 | i | -1 | 7 | -12 | 0 | 4 | 8
CSc1cccc(N2CC(C(=O)NCCN3C(=O)S/C(=C\c4cccnc4)C3=O)CC2=O)c1 (centres undefined) | -12 | i | · | -1 | -9 | 1 | -2 | ·
COc1cc(C(CC(=O)Nc2cccc(C)n2)N2Cc3ccccc3C2=O)cc(OC)c1OC (centres undefined) | 4 | i | -2 | 5 | -11 | -1 | 3 | 9
Cn1c(=O)[nH]c(=O)c2c1nc1n2CCS1 | -3 | i | -4 | 1 | · | 0 | -3 | -1
Cc1nnc(SCC(=O)Nc2ccc(N3CCN(S(C)(=O)=O)CC3)cc2)o1 | · | i | 3 | 23 | -19 | -2 | -1 | 7
COc1cc(CN2CCC(C(N)=O)CC2)ccc1OCc1ccccc1 | -13 | i | 5 | -4 | -11 | -3 | -4 | 6
Cc1cc(C)c(Nc2ncccc2C(=O)O)c(C)c1 | · | i | -4 | -7 | · | 0 | 3 | 0
CCC(C)NC(=O)c1ccc(CNS(=O)(=O)c2ccc3c(c2)C(C)(C)C(=O)N3C)cc1 (centres undefined) | 2 | i | -7 | 2 | 21 | -1 | -2 | -8
CCOc1ccc(N2C(=O)C3CC(C)=C(C)CC3C2=O)c([N+](=O)[O-])c1 (centres undefined) | 0 | i | -6 | 9 | 11 | 4 | 1 | -2
CCCCCC(=O)Nc1ccc(N2CCN(S(C)(=O)=O)CC2)cc1 | -13 | i | -5 | -52 | -6 | -1 | 0 | -3
COc1cc(/C=C/C(=O)c2ccc(C)c([N+](=O)[O-])c2)cc(OC)c1O | 43 | i | 2 | 14 | · | -4 | -3 | 4
CCOc1ccc(CC2NCCc3cc(OCC)c(OCC)cc32)cc1OCC (centres undefined) | 7 | i | 0 | 2 | 3 | -5 | 1 | -4
Cc1cc(C)c(OCC(=O)NCC2COc3ccccc3O2)c(C)c1 (centres undefined) | · | · | · | -7 | -19 | 0 | -1 | ·
COc1ccc(OCCN2CCC(C(=O)NC(c3ccc(C)cc3)c3ccccn3)CC2)cc1 (centres undefined) | · | · | · | 10 | -3 | -1 | 5 | ·
Cc1ccsc1CN(C)C(=O)CN1C(=O)NC2(CCCCC2C)C1=O (centres undefined) | · | · | · | 1 | -2 | -1 | 3 | ·
NC(=O)[C@@H]1CCCN1Cc1nc(-c2ccccc2)no1 | -3 | i | -1 | 11 | -4 | -1 | 1 | 5
CC1CCCN(c2ccc(N)cc2C(N)=O)C1 (centres undefined) | 35 | i | 5 | -116 | -17 | 2 | 1 | 13
CCC(=O)N1CCCC(C(=O)NCc2ccc(C(C)C)cc2)CC1 (centres undefined) | · | · | · | 9 | -10 | -2 | 0 | ·
(further entries)
SMILES | CSC inhib | Rce1 inh | eIF4H FP inh | HIV Env fusion | Yeast UUG start | MT1-MMP act inh | MT1-MMP act inh RFP | PABP polyA inh
COc1cccc(-c2cc3nc4c(c(NCC(C)(C)CN(C)C)n3n2)CCCC4)c1 | 49 | i | -11 | -6 | · | -4 | -13 | -7
Cc1noc(C)c1CSc1ccc2ccccc2n1 | 13 | i | 4 | -40 | -9 | 1 | -1 | -1
CCC(C)(CCNC(=O)Cc1ccccc1)c1ccccc1OC (centres undefined) | -10 | i | -3 | 19 | -11 | -2 | -5 | -4
COC(=O)/C(N=Nc1cccc(C(F)(F)F)c1)=C(\C)O | 5 | i | ? | · | -10 | 4 | 0 | ?
Cc1cc(C)cc(NC(=O)CSc2nnc(NC(=O)C3CC3)s2)c1 | -9 | · | 0 | 12 | -9 | 2 | 3 | 12
COc1ccccc1/C=C/C1=NC(=C\C=C/c2ccccc2)/C(=O)O1 | -5 | i | 0 | 4 | · | -4 | -8 | -10
CCn1c(C(=O)NC(C)c2ccc3c(c2)OCCO3)cc2sccc21 (centres undefined) | 0 | i | 5 | -19 | 0 | 6 | 2 | -5
O=C(Nc1ccc2c(c1)OCCO2)Nc1ccc2c(c1)OCO2 | 6 | i | -4 | -119 | · | -3 | 1 | -9
CC1CN(Cc2nc3ccccc3c(=O)[nH]2)CC(C)O1 (centres undefined) | -11 | i | 6 | 14 | · | -5 | -2 | -5
CC(C)c1ccc(CN(C(=O)c2cc3ccccc3oc2=O)C2CCS(=O)(=O)C2)cc1 (centres undefined) | -1 | i | 0 | -8 | -9 | 2 | 0 | 4
CCC(C(=O)N1CCN(S(C)(=O)=O)CC1)c1ccccc1 (centres undefined) | 17 | i | -2 | · | · | -2 | 1 | -4
O=C(Nc1ccc(C(F)(F)F)cc1)c1ccc(NC(=O)C2CCCO2)cc1 (centres undefined) | -6 | i | -1 | · | -6 | -5 | -23 | 4
NS(=O)(=O)c1ccc(CNC(=O)c2cccnc2Cl)cc1 | -6 | i | 10 | -1 | -14 | 1 | 3 | 6
Cc1ccc(C(=O)NN2C(=O)C3C4C=CC(C5CC45)C3C2=O)cc1 (centres undefined) | 6 | i | 4 | 3 | · | -4 | -5 | 1
CCCOC(=O)NC1C(NC(=O)OCCC)N(C)C(=O)N1C (centres undefined) | -4 | i | 3 | · | · | 4 | 2 | -1
O=C(NCCNc1ccccc1[N+](=O)[O-])c1cc(F)c(F)cc1Cl | -8 | i | -10 | -13 | -9 | 5 | 0 | -13
COc1ccc(-n2cnnc2SCC(=O)N2CCN(c3ccccc3)CC2)cc1 | -12 | i | 9 | · | -14 | 9 | 6 | 6
CCOc1ccccc1NC(=O)c1cc(C(=O)c2cc(OC)ccc2O)coc1=N | 5 | i | -6 | 6 | -6 | -28 | -3 | 2
COc1ccc2c(c1)c(C(=O)CNc1nc(C)cs1)c(C)n2C | -9 | i | 7 | · | -19 | 3 | -1 | 17
COCOc1cccc(CN2CCC2(C)C(=O)Nc2ccc3c(c2)OCO3)c1 (centres undefined) | · | · | · | 18 | -11 | 4 | 2 | ·
Cc1cc(C(=O)NP(=O)(N2CC(C)OC(C)C2)N2CC(C)OC(C)C2)c(C)n1C1CC1 (centres undefined) | 7 | i | 6 | -2 | · | -1 | 0 | -5
CC(C)n1c(C(O)c2ccccc2)nc2ccccc21 (centres undefined) | -21 | i | 14 | · | -13 | 5 | 0 | -2
CCOC(=O)C1CCN(Cc2ccc(Cl)c(Cl)c2)CC1 | -3 | i | -9 | 21 | -1 | 3 | -3 | 10
CC(=O)NS(=O)(=O)c1ccc(NC(=O)/C=C/c2cn(-c3ccccc3)nc2-c2ccccc2)cc1 | 1 | i | 5 | -1 | 6 | 2 | 1 | -13
O=C(Cn1c(=O)[nH]c2ccsc2c1=O)NC1CCCCCC1 | -6 | i | 3 | -39 | -9 | 10 | 5 | 10

A different layout for twelve compounds above.
compound	CSC inhib	Rce1 inh	eIF4H FP inh	HIV Env fusion	Yeast UUG start	MT1-MMP act inh	MT1-MMP act inh RFP	PABP polyA inh
Cc1ccc(C(=O)NN2C(=O)C3C4C=CC(C5CC45)C3C2=O)cc1 (centres undefined)	6	i	4	3	·	-4	-5	1
CCCOC(=O)NC1C(NC(=O)OCCC)N(C)C(=O)N1C (centres undefined)	-4	i	3	·	·	4	2	-1
O=C(NCCNc1ccccc1[N+](=O)[O-])c1cc(F)c(F)cc1Cl	-8	i	-10	-13	-9	5	0	-13
COc1ccc(-n2cnnc2SCC(=O)N2CCN(c3ccccc3)CC2)cc1	-12	i	9	·	-14	9	6	6
CCOc1ccccc1NC(=O)c1cc(C(=O)c2cc(OC)ccc2O)coc1=N	5	i	-6	6	-6	-28	-3	2
COc1ccc2c(c1)c(C(=O)CNc1nc(C)cs1)c(C)n2C	-9	i	7	·	-19	3	-1	17
COCOc1cccc(CN2CCC2(C)C(=O)Nc2ccc3c(c2)OCO3)c1 (centres undefined)	·	·	·	18	-11	4	2	·
Cc1cc(C(=O)NP(=O)(N2CC(C)OC(C)C2)N2CC(C)OC(C)C2)c(C)n1C1CC1 (centres undefined)	7	i	6	-2	·	-1	0	-5
CC(C)n1c(C(O)c2ccccc2)nc2ccccc21 (centres undefined)	-21	i	14	·	-13	5	0	-2
CCOC(=O)C1CCN(Cc2ccc(Cl)c(Cl)c2)CC1	-3	i	-9	21	-1	3	-3	10
CC(=O)NS(=O)(=O)c1ccc(NC(=O)/C=C/c2cn(-c3ccccc3)nc2-c2ccccc2)cc1	1	i	5	-1	6	2	1	-13
O=C(Cn1c(=O)[nH]c2ccsc2c1=O)NC1CCCCCC1	-6	i	3	-39	-9	10	5	10

(cont.)
SMILES | CSC inhib | Rce1 inh | eIF4H FP inh | HIV Env fusion | Yeast UUG start | MT1-MMP act inh | MT1-MMP act inh RFP | PABP polyA inh
CC1CCCCC1NC(=O)CSc1nnnn1-c1ccccc1 (centres undefined) | 4 | i | 10 | -36 | -13 | 0 | -2 | 8
CCOC(=O)c1c(C)[nH]c(C)c1C(=O)COC(=O)/C=C/c1ccco1 | -8 | · | · | · | -4 | 0 | 0 | ·
CCNC(=S)NNC(=O)c1ccccn1 | -17 | i | 10 | -40 | 7 | 2 | 0 | -4
CC(C)NC(=O)N(C)C[C@H]1Oc2ccc(NS(=O)(=O)c3ccc(Cl)cc3)cc2CC(=O)N([C@@H](C)CO)C[C@@H]1C | · | · | · | -21 | -2 | 7 | 4 | ·
CC(c1ccccn1)N(C)C(=O)c1ccc2nc(Cc3cccc(Cl)c3)oc2c1 (centres undefined) | -1 | i | 0 | · | -7 | 5 | 1 | -10
COc1cc(C2CC(=O)N3CN(Cc4ccco4)CSC3=C2C#N)ccc1OCc1ccccc1 (centres undefined) | 20 | i | 23 | · | 4 | 1 | -4 | 1
Cc1ccc(CSCc2ccc(C(=O)NCCCN3CCOCC3)o2)cc1 | -6 | i | -3 | 9 | -7 | -1 | 1 | -11
c1ccc2c(c1)CSc1ccccc1N2 | -8 | i | · | -10 | -18 | -3 | -3 | ·
COc1ccc(C(CC(=O)N2CCCCC2)c2c(O)cc(OC)cc2OC)cc1 (centres undefined) | -4 | i | 4 | -14 | -3 | 2 | 0 | 7
COc1ccc(CCC(=O)NCC(=O)OCc2ccccc2)cc1 | -4 | i | -6 | -6 | -11 | -4 | 1 | 7
CS(=O)(=O)N(CC(=O)N1CCCC1)c1ccc(Cl)cc1Cl | -7 | i | 3 | 5 | -14 | 1 | 3 | 3

An excerpt; count on the stated rates, not on these rows.
